VDR inhibitor: blocks the human vitamin D receptor. actives 0.93% (n = 400,000). Potency, µM, for inactives: max response, negative = inhibition, usual class: inhibitors. VDR-SRC2-3 peptide fluorescence polarization, 2 h. AID 504847; active = well fitted inhibition curve with a large enough effect; inconclusive = small, poorly fitted or top-dose-only effect, or another doubt; inactive = no such curve, though single readings can be large or run the other way; also: series mostly up to about 120 µM
Target sequence (P11473 whole entry, looked up): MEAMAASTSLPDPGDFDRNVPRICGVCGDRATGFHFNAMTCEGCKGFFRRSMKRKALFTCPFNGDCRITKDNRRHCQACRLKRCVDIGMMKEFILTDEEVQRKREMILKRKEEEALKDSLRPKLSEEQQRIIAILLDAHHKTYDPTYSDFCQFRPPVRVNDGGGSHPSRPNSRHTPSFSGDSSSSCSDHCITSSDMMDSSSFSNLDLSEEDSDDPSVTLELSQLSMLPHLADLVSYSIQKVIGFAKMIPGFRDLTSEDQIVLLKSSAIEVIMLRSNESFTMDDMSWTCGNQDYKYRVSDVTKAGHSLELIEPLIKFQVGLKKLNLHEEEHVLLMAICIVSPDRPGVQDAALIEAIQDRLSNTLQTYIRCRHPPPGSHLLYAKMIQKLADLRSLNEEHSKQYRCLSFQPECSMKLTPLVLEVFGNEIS
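Signal is fluorescence polarization, reporting how far test compounds block the interaction of VDR with the SRC2-3 coregulator peptide after a 2 h room-temperature incubation.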
Active calls of the source: *; ? = inconclusive; & = joins results of further samples. % is scaled to controls: 0 for no effect and ±100 for the full control effect; potency is read from the fitted curve at half-maximal effect. These rows are one share of the data. The share of hits here may be higher or lower than overall.

| compound | VDR inhibitor |
| --- | --- |
| Cc1c(C(=O)CN2CCN(c3ccccc3)CC2)c2ccccc2n1C | 3% |
| CC1(C)CC(=O)c2cc(C(=O)N3CCN(CCO)CC3)c(=O)n(-c3ccc(Cl)cc3)c2C1 | -2% |
| C[C@]1(OC(=O)/C=C\c2ccccc2)C[C@@H](O)[C@@]2(O)C=CO[C@@H](O[C@H]3O[C@@H](CO)[C@@H](O)[C@@H](O)[C@@H]3O)[C@H]21 | 9% |
| CC(=O)Nc1nonc1-c1nnc(SCc2ccc(F)cc2)n1C | 14% |
| CCOc1nc(OCC)c2cnn(C)c2n1 | 13% |
| Cn1c(=O)c2c(-c3ccc(Br)cc3)n(CCc3ccccc3)cc2n(C)c1=O | -3% |
| CC(/C=C1\SC(=S)N(NC(=O)c2ccc(O)cc2)C1=O)=C\c1ccccc1 | 2% |
| CCCCOc1ccc(C(=O)Nc2cccc(C)n2)cc1 | -1% |
| CCCN(CCC)S(=O)(=O)c1ccc(C(=O)Nc2nnc(CSC)o2)cc1 | -12% |
| CCN(c1ccccc1)S(=O)(=O)c1ccc(C(=O)Nc2nnc(-c3ccco3)o2)cc1 | -8% |
| Cc1ccc(NC(=O)CCC(=O)N2Cc3ccccc3Oc3ncccc32)cc1Cl | 4% |
| COc1ccc(-c2csc(NC(=S)NC(=O)/C=C/c3ccccc3)n2)cc1Br | -8% |
| CC(=O)N1CCOc2ccc(S(=O)(=O)NCc3ccccc3Cl)cc21 | -3% |
| COc1cc(CN2CCNC(=O)C2CC(=O)N(Cc2nccn2C)C(C)C)cc(OC)c1 (configuration not stated) | 10% |
| CCc1nnc(NC(=O)CCC(=O)NC2CCCc3ccccc32)s1 (configuration not stated) | 9% |
| CCOC(=O)C(C)Sc1nc2ccccc2c(=O)n1CC1CCCCC1 (configuration not stated) | 1% |
| COc1ccc(NC(C)=O)cc1S(=O)(=O)Nc1ccc(C(=O)N2CCCC2)cc1 | -16% |
| O=C(Cn1cc(C(=O)C2CC2)c2ccccc21)NC1CCCC1 | 3% |
| COc1cccc(CC2(CO)CCCN(S(=O)(=O)N(C)C)C2)c1 (configuration not stated) | -3% |
| COc1ccc(-c2[nH]c3ccccc3c2SCCN)cc1 | 2% |
| CN(C)CCCNC(=O)c1cc(C(=O)c2ccc(F)cc2)c[nH]1 | 5% |
| Cn1c(=O)cc(SCC(=O)NCc2ccc(F)cc2)c2ccc(Cl)cc21 | -15% |
| COc1ccc(NC(=O)c2ccco2)cc1NC(=O)c1cccc(C)c1OC | ? |
| O=C1CCc2cc(S(=O)(=O)NC(C(=O)Nc3ccc(F)cc3)c3ccccc3)ccc2N1 (configuration not stated) | -18% |
| Cc1ccc2oc(-c3ccccc3)cc(=O)c2c1 | -19% |
| Cn1c(=O)n(C)c2cc(NC(=O)c3cc4ccccc4o3)ccc21 | 21% |
| O=C(O)c1cccc(S(=O)(=O)Nc2ccc(OCc3ccccc3)cc2)c1 | -15% |
| Cc1cc2c(cc3c(SCc4ccc(Cl)cc4)nnc(C)n32)o1 | 1% |
| O=C(Nc1cccc(S(=O)(=O)N2CCOCC2)c1)c1cc2ccccc2o1 | 14% |
| CC(C)c1ccc(-n2cnn(-c3ncccc3[N+](=O)[O-])c2=O)cc1 | 1% |
| COc1ccc(S(=O)(=O)N2Cc3ccccc3CC2C(=O)Nc2ccc(O)cc2)cc1OC (configuration not stated) | 4% |
| Cc1ccccc1OCC(=O)NCC(C)(C)N1CCOCC1 | 11% |

Part of the list above in order of SMILES length, ascending.
| compound | VDR inhibitor |
| --- | --- |
| Cc1cc2c(cc3c(SCc4ccc(Cl)cc4)nnc(C)n32)o1 | 1% |
| Cn1c(=O)n(C)c2cc(NC(=O)c3cc4ccccc4o3)ccc21 | 21% |
| O=C(O)c1cccc(S(=O)(=O)Nc2ccc(OCc3ccccc3)cc2)c1 | -15% |
| CC(C)c1ccc(-n2cnn(-c3ncccc3[N+](=O)[O-])c2=O)cc1 | 1% |
| COc1ccc(S(=O)(=O)N2Cc3ccccc3CC2C(=O)Nc2ccc(O)cc2)cc1OC (configuration not stated) | 4% |

Further entries
| compound | VDR inhibitor |
| --- | --- |
| O=C(Nc1ccccc1N1CCOCC1)c1ccccc1NS(=O)(=O)c1ccc(F)c(F)c1 | 22% |
| COc1ccc(-n2cnc3c(N)nc(N)nc32)cc1 | -3% |
| COc1ccc(NC(=O)c2c[nH]c(=O)n(-c3ccc(C)c(C)c3)c2=O)cc1OC | 17% |
| C/C(=N\NC(=O)CCn1nnc2ccccc21)c1cccs1 | 4% |
| Cc1ccc(-c2nn3c(C)nnc3c3ccccc23)cc1S(=O)(=O)NCCN1CCOCC1 | 6% |
| Cc1ccc(S(=O)(=O)N2CCN(c3ccc([N+](=O)[O-])c(NCCN4CCOCC4)c3)CC2)cc1 | 3% |
| Cc1cccc(N(CC(=O)NCc2ccc(F)cc2)C(=O)c2ccco2)c1 | -2% |
| COc1cccc(Nc2ncnc3c2cnn3-c2cccc(C)c2)c1 | 17% |
| Clc1ccc(Oc2ncnc3oc(-c4ccccc4)cc23)cc1 | -4% |
| COc1ccc(NC(=O)CSc2nc(=O)n(CCN(C)C)c3c2CCCC3)cc1 | -12% |
| O=c1c2cc(Cl)ccc2nc(-c2ccc([N+](=O)[O-])cc2)n1O | -18% |
| CCN(c1cccc(C)c1)S(=O)(=O)c1c(C)[nH]c(=O)[nH]c1=O | -3% |
| CN(C)CCNC(=O)NC(=O)c1ccc(Cl)cc1 | -7% |
| CC1(Cc2ccc3c(c2)OCO3)NC(=O)NC1=O (configuration not stated) | 3% |
| O=C(CCC(=O)NC1CC1)Nc1nnc(C2CCCCC2)s1 | 2% |
| C/C(=N\N(C)C)c1ccc(OCCOc2ccc([N+](=O)[O-])cc2)cc1 | -14% |
| COC(=O)[C@H]1[C@@H]2C[C@H]3c4[nH]c5ccccc5c4CCN3C[C@@H]2CC[C@@H]1O | 8% |
| O=C(Nc1cccnc1)c1ccc(Cl)c(S(=O)(=O)N2CCc3ccccc32)c1 | -23% |
| CC(C)COc1ccc(/C=C2/Sc3ccccc3C2=O)cc1 | -9% |
| Cc1ccc(S(=O)(=O)Cn2nnnc2C(C(C)C)N2CCC(O)CC2)cc1 (configuration not stated) | -5% |
| CCN1C(=O)Cc2cc(S(=O)(=O)N3CCOCC3)ccc21 | -4% |
| CCC(=O)N1CCN(c2ccc(NC(=O)c3cccs3)cc2)CC1 | -8% |
| COC(=O)/C=c1/s/c(=C(/C#N)C(=O)N2CCCCC2)n(-c2ccccc2)c1=O | ? |
| Cc1ccc(OCC(=O)NNC(=S)NC(=O)c2cccs2)c(C)c1 | -5% |
| COCCNC(=O)CSc1cn(CC(=O)N2CCCCCC2)c2ccccc12 | 4% |
| COc1ccc(N2CCN(c3nc4ccccc4n3CC(=O)c3ccccc3)CC2)cc1 | 19% |
| CCC1Oc2ccc(C)cc2N(CC(=O)NCCN2CCCCCC2)C1=O (configuration not stated) | -5% |
| COc1ccc(C(=O)Nc2ccc3nc(SCC(=O)N4CCOCC4)sc3c2)cc1 | 5% |
| O=C(/C=C/c1ccco1)N1CCN(S(=O)(=O)c2ccccc2)CC1 | -7% |
| Cn1c2c(c(=O)n(C)c1=O)C(c1ccc(Br)cc1)C(C#N)=C(N)N2 (configuration not stated) | -15% |
| O=C(CCN1C(=O)C2C3C=CC(C3)C2C1=O)Nc1nccs1 (configuration not stated) | -3% |
| CC(=O)Nc1ccc(NC(=O)CSc2nnc(NC(=O)C3CC(=O)N(c4ccccc4)C3)s2)cc1 (configuration not stated) | 21% |
| Cc1ccc(/C=C2/SC(=S)N(CCCC(=O)Nc3ccc(O)cc3)C2=O)cc1 | 18% |
| CCOc1ccccc1NC(=O)C(Sc1ccccc1)c1ccccc1 (configuration not stated) | -19% |
| N#C/C(C(=O)Oc1ccccc1)=C1/Nc2ccccc2-c2ccccc21 | -14% |
| COc1ccc(NC(=O)N(Cc2cc3ccc(OC)cc3[nH]c2=O)CC2CCCO2)cc1 (configuration not stated) | -6% |
| Cc1ccc(C(=O)N2CCCC(N3CCN(c4ccccc4F)CC3)C2)s1 (configuration not stated) | -6% |
| CCC(=O)c1ccccc1OCCSc1nc(C)cc(=O)[nH]1 | -8% |
| O=C(CCc1ccc(O)cc1)c1c(O)cc(O)cc1O[C@@H]1O[C@H](CO)[C@@H](O)[C@H](O)[C@H]1O | -17%&-4% |
| CCc1ccc(NC(=O)CC2C(=O)N(c3ccc(C)cc3)C(=O)N2CCc2ccncc2)cc1 (configuration not stated) | 3%&6% |
| Cc1ccccc1-n1c(C)nnc1SCC(=O)N(C)C1CCS(=O)(=O)C1 (configuration not stated) | -14% |
| O=C(Nc1ccc(S(=O)(=O)Nc2ncccn2)cc1)c1ccc2ncsc2c1 | -9% |
| O=C(Nc1ccc(N2CCN(C(=O)c3ccc(Cl)cc3)CC2)cc1)c1ccc2c(c1)OCCO2 | 9% |
| CN(C)/C=C(\C#N)C(=O)N/N=C/c1ccccc1 | 9% |
| O=C(NC(=S)NNS(=O)(=O)c1ccccc1)c1ccc([N+](=O)[O-])cc1 | -2% |
| Cc1ccc2cc(CNC(C)(C)C)c(=O)[nH]c2c1 | 12% |
| O=C(Cc1ccccc1)Nc1ncccn1 | 6% |
| COc1ccc(-c2cn3nc(N4CCCC(C(=O)NCc5ccccc5Cl)C4)sc3n2)cc1 (configuration not stated) | 3% |
| CC1CCN(Cc2nc3c(c(=O)n(C)c(=O)n3C)n2CCCc2ccccc2)CC1 | 9% |
| COc1cccc(C2C(C(=O)Nc3nc4ccccc4s3)=C(C)NC3=C2C(=O)CC(C)(C)C3)c1OC (configuration not stated) | 19% |
| CCOC(=O)C1CCN(C(=O)c2cccc(NC(=O)C(CC)CC)c2)CC1 | -7% |
| Cc1ccc(NC(=O)CN2C(=O)NC3(CCCCCCC3)C2=O)cc1C | ? |
| COc1ccc(Cl)cc1NC(=O)CN(C)C(=O)c1cc(-c2ccncc2)nc2ccccc12 | -8% |
| COc1ccc(/C=C2\SC(=O)N(CC(=O)Nc3ccccc3O)C2=O)cc1OC | 7% |
| CCOc1cc(Br)cc(C2NC(=O)c3c(sc4c3CCN(C)C4)N2)c1O (configuration not stated) | -1% |
| Cn1c(SCc2cccc(F)c2)nnc1-c1ccncc1 | 12% |

The results go on.
| compound | VDR inhibitor |
| --- | --- |
| O=C(NCCCN1CCN(c2ccc(F)cc2)CC1)Nc1ccc(Cl)cc1 | -23% |
| Cc1cccc(N(CC(=O)N2CCCC2)S(C)(=O)=O)c1 | -10% |
| Cc1ccc(Cl)cc1NC(=O)c1ccc(NC(=O)CCC(=O)O)cc1 | -3% |
| CCOC(=O)CC1=NN(c2ccccc2)C(=O)/C1=C\c1ccc(N(C)C)cc1 | ? |
| O=C(C1CC1)N1CCCC(c2ccc(Cl)cc2)=N1 | -14% |
| COc1cccc(C(=O)Nc2ccc3c(c2)OCO3)c1OC | 7% |
| COc1ccc(C(C[N+](=O)[O-])c2c(C)[nH]c3ccccc23)cc1OC (configuration not stated) | 7% |
| CC(=O)Nc1ccc(Oc2cc(C#N)c(C#N)cc2N2CCCCCC2)cc1 | 10% |
| Cc1sc2nc(SCCN(C)C)n(-c3ccccc3)c(=O)c2c1-c1ccc(F)cc1 | 0% |
| Cc1ccc(S(=O)(=O)N(C)C)cc1-n1c(SCC(=O)Nc2ccc(F)c(F)c2F)nc2ccccc2c1=O | -4% |
| Cn1c(=O)[nH]c(=O)c2c1nc1n2CC(O)CN1c1ccccc1 (configuration not stated) | 15% |
| COc1ccc(-c2cc(C(=O)OCC(=O)c3cccc(OC)c3)c3cccc(Cl)c3n2)cc1 | 2% |
| CN(C)Cc1cn(CCC(=O)O)c2ccccc12 | -3% |
| CCCNC(=O)C(Cc1ccc(C(F)(F)F)cc1)NC(=O)c1ccc2ccccc2n1 (configuration not stated) | 7% |
| Cc1nn(C(C)C(=O)N2CCOCC2)c(=O)c2nn(-c3ccccc3)c(C)c12 (configuration not stated) | 3% |
| CCCCCc1c(C)c(C#N)c2nc3ccccc3n2c1-n1ccnc1C | 5% |
| Nc1nc(SCc2c(F)cccc2Cl)[nH]c(=O)c1-c1ccccc1 | -10% |
| COc1ccc(Cl)cc1C(=O)Nc1ccc(N(C)C(C)=O)cc1 | -10% |
| CN(C)C(=S)Nc1ccc2ccccc2c1 | -14% |
| Cc1ccnc(NC(c2cc(C)ccc2O)c2ccc3cccnc3c2O)c1 (configuration not stated) | 16µM* |
| O=S(=O)(NC1CCCC1)c1ccc(S(=O)(=O)N2CCc3ccccc32)cc1 | 15% |
| CCN(c1ccc(NC(=O)COC(=O)/C=C/c2cccs2)cc1)C(C)C | 10% |
| CCCN1CNc2c(c(=O)[nH]c(=S)n2CCc2ccc3c(c2)OCCO3)C1 | -3% |
| COc1ccc(OC)c(NC(=O)c2nc3ccccc3s2)c1 | -3% |
| CCOC(=O)C1CCCN(S(=O)(=O)c2c(C)c(C)cc(C)c2C)C1 (configuration not stated) | -12% |
| COC(=O)C1CCN(C(=O)C23CCC(C)(C(=O)O2)C3(C)C)CC1 (configuration not stated) | 14% |
| CCCN(CCC)CCNC(=O)c1cc2c(=O)oc3ccc(C)cc3c2s1 | 3% |
| CCCCN(C(=O)C1CCCC1)c1c(N)n(CCC)c(=O)[nH]c1=O | -21% |
| CC(C)Oc1ccc(S(=O)(=O)N2CCOCC2)cc1NC(=O)c1cc([N+](=O)[O-])ccc1N1CCOCC1 | 1% |
| CCC1CC(C)(C(=O)Nc2ccc(S(N)(=O)=O)cc2)OC1=O (configuration not stated) | -23% |
| Cc1ccc(C)c(/C(O)=C2/C(=O)C(=O)N(CCN3CCOCC3)C2c2ccc(C)o2)c1 (configuration not stated) | -22% |
| COc1ccccc1NC(=O)CSc1sc2c(O)cc(=O)[nH]c2c1C#N | 7% |
| COc1cc2ccccc2cc1C(=O)N(CCN(C)C)c1nc2c(C)cccc2s1 | -17% |
| CCOC(=O)c1cnn(-c2ccc(C(=O)Nc3ccc(OC(F)(F)F)cc3)cc2)c1N | 5% |
